VDR inh – inhibitors of human vitamin D receptor. VDR-SRC2-3 peptide fluorescence polarization, 2 h. Potency, µM, for the others: max response, negative = inhibition, usual class: inhibitors. 400,000 tested, 0.93% active. AID 504847; active = well fitted inhibition curve with a large enough effect; inconclusive = small, poorly fitted or top-dose-only effect, or another doubt; inactive = no such curve, though single readings can be large or run the other way; also: series mostly up to about 120 µM
Target sequence (P11473 whole entry, looked up): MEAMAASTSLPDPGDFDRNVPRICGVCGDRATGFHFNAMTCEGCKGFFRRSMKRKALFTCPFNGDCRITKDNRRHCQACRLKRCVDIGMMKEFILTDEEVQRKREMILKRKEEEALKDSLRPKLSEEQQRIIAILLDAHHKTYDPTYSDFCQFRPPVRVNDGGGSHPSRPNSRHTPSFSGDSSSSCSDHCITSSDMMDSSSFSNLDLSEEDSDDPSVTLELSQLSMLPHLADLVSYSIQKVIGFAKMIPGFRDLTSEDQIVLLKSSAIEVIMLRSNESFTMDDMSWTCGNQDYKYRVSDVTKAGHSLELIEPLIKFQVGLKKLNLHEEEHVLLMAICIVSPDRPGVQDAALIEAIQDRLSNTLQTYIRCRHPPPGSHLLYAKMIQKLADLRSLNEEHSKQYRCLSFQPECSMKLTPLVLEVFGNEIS
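Inhibition of the VDR/SRC2-3 peptide interaction is quantified by fluorescence polarization. Compounds (23 nl, pintool) incubate with the reagents for 2 hours at ambient room temperature.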
Numbers without * were called inactive; ? = inconclusive; & = joins results of further samples; [ ] = remark or other dose. % is scaled to controls: 0 for no effect and ±100 for the full control effect; potency is read from the fitted curve at half-maximal effect. Only part of the results is shown, so the mix of outcomes need not match the whole.

SMILES | VDR inh
Cc1cc(NC(=O)C2CC(=O)N(c3ccc(Cl)cc3)C2)no1 (stereo unspecified) | -22%
COc1ccc(C(=O)Nc2ccc3oc(-c4cccc(F)c4)nc3c2)cc1OC | 0%
CCn1c(SCC(=O)Nc2ccc(OC)cc2)nc2c(c1=O)SCC2 | -16%
CCOC(=O)c1c(NC(=O)c2ccccc2)sc2c1CCc1ccccc1-2 | 71µM*
Cc1cc(Nc2cccc(C)c2C)n2nc(C)nc2n1 | 4%
O=C1NC(=S)N(C(=O)c2ccc(F)cc2)/C1=C/c1ccccc1 | 0%
COc1cccc(NC(=O)CSc2nc3c([nH]c4ccccc43)c(=O)n2-c2cc(C)cc(C)c2)c1 | 26%
O=C(/C(=C/c1ccc(Cl)cc1)c1nc2ccccc2[nH]1)c1cccs1 | 18µM*
Cc1cccc(N2CCN(C(=O)CCNC(=O)Cn3ccc4ccccc4c3=O)CC2)c1C | 1%
COc1ccc(/C=N/n2c(C3CCCCC3)n[nH]c2=S)c(OC)c1 | -25%
O=C(CSC1=NC2(CCCCC2)N=C1c1ccccc1)Nc1ccc2c(c1)OCCO2 | ?
COC(=O)Nc1ccc(S(=O)(=O)NC2CCS(=O)(=O)C2)cc1 (stereo unspecified) | -7%
CCOc1ccc(CNC(=O)c2ccc3c(Cl)c4c(nc3c2)CCCC4)cc1 | -7%
Cc1noc(C)c1COc1ccccc1C(=O)NNC(=O)c1ccccc1F | 3%
COCCn1c(C)cc(/C=C2/NC(=O)N(Cc3ccc(C)cc3)C2=O)c1C | 0%
O=C(CNS(=O)(=O)c1ccc(Br)s1)NCc1ccccc1 | 0%
CCN(CC)C(=O)CC(c1ccc(N(C)C)cc1)c1c(OC)cc(OC)c2ccc(=O)oc12 (stereo unspecified) | -4%&-11%
C(=NN1CCCCCC1)c1cccc2ccccc12 | -5%
CCCCNS(=O)(=O)c1ccc(NC(=O)c2cccs2)cc1 | -11%
Cc1ccc(C)c(NC(=O)COC(=O)CSc2ccccc2)c1 | -11%
COC(=O)[C@@]12CCCN1[C@H](c1ccc(-c3ccc(OC)cc3)c(OC)c1)[C@@H]1C(=O)N(C)C(=O)[C@@H]12 | 5%
O=C(CSc1nnc(-c2cccnc2)o1)NNC(=O)c1ccc(Br)cc1 | 4%
COc1ccc(NC(=O)N(Cc2cccnc2)Cc2ccccc2Cl)c(OC)c1 | -20%
COc1ccc(Cl)cc1C(=O)Nc1ccc([N+](=O)[O-])cc1Cl | 4%

Part of the list above, field by field:
Cc1noc(C)c1COc1ccccc1C(=O)NNC(=O)c1ccccc1F
  VDR inh: 3%

CCN(CC)C(=O)CC(c1ccc(N(C)C)cc1)c1c(OC)cc(OC)c2ccc(=O)oc12 (stereo unspecified)
  VDR inh: -4%&-11%

CCOc1ccc(CNC(=O)c2ccc3c(Cl)c4c(nc3c2)CCCC4)cc1
  VDR inh: -7%

COCCn1c(C)cc(/C=C2/NC(=O)N(Cc3ccc(C)cc3)C2=O)c1C
  VDR inh: 0%

Carrying on:
SMILES | VDR inh
COc1ccc2oc(=O)c(-c3ccccc3C(=O)N3CCOCC3)cc2c1 | 5%
CC(=O)Nc1ccc(-c2nnc(SCc3ccc(C)cc3)n2C)cc1 | 6%
COc1ccc(C(CCN2CCOCC2)c2c(OC)cc(OC)c3c(-c4ccccc4)cc(=O)oc23)cc1 (stereo unspecified) | 9%&-7%
Cc1cc(C)c(-c2csc(NC(=O)c3n[nH]c(=O)c4ccccc34)n2)c(C)c1 | -4%
Cc1ccc(S(=O)(=O)N/N=C\c2ccccc2OCc2ccccc2)cc1 | -4%
CCOC(=O)c1ccc(N2C(=O)c3n[nH]c(-c4cccs4)c3C2c2ccc(O)c(OC)c2)cc1 (stereo unspecified) | -21%
Cc1ccc(C23CC4CC(CC(CN)(C4)C2)C3)cc1 | -1%
CN(C(=O)COC(=O)COc1ccc(Cl)cc1)C1CCCCC1 | 16%
CC(C)CCNc1nc(-c2ccco2)c2c(c1C#N)CCCC2 | 0%
COc1ccc(C(=O)N/N=C\C(C)=C\c2ccccc2)cc1OC | -17%
COc1ccc(CCNC(=O)c2cccc(S(=O)(=O)N3CCCCC3)c2)cc1 | 3%
COc1ccc(-c2noc(C3CCCN(C(=O)Nc4ccccc4F)C3)n2)cc1 (stereo unspecified) | -5%
O=c1c(=O)n2c(nn1Cc1ccc(F)cc1)sc1ccccc12 | -8%
Cc1ccc2c(C)nc(Nc3nc(CSc4nc5ccccc5[nH]4)cc(=O)[nH]3)nc2c1 | -14%
CNC(=O)c1ccc(NC(=O)c2ccc3c(=O)n4c(nc3c2)CCC4)cc1 | -5%
Cc1cc(N2C(=O)NC(=O)CC2C)c(C)cc1C(C)C (stereo unspecified) | -6%
CCOC(=O)C1CCCN(C(=O)c2cccs2)C1 (stereo unspecified) | -1%
O=C(OCC(=O)N1CCOCC1)c1cccc(S(=O)(=O)Nc2ccc(F)cc2)c1 | 2%
CC(C)c1ccc(OCC(O)CNC(C)c2ccccc2)cc1 (stereo unspecified) | 8%
O=C(COC(=O)/C=C/c1ccc(OC(F)F)cc1)Nc1cccc(S(=O)(=O)N2CCOCC2)c1 | 16%
COc1ccc2cc3c(N)nn(C(=O)c4ccc(Cl)c([N+](=O)[O-])c4)c3nc2c1 | 5%
CC(C)(C)OC(=O)CN1C(=O)NC2(CCCc3ccccc32)C1=O (stereo unspecified) | 27%
COc1ccc(NC(=O)c2cccc(S(=O)(=O)N3CCCC3)c2)cc1OC | -13%
CC(CCN1C(Nc2ccccc2)=NC[C@@H]1Cc1ccccc1)c1ccccc1 (stereo partly specified) | 8%
CSc1nc(-c2ccccc2)nn1C(=O)c1ccco1 | -26%
O=C(CN1CCN(C/C=C/c2ccccc2)CC1)Nc1cc([N+](=O)[O-])ccc1Cl | -6%
Cc1ccc(C)c(-n2c3nc(=O)[nH]c(=O)c-3cc3cc([N+](=O)[O-])ccc32)c1 | ?
CCc1ccc(-c2nn(CC(=O)NCc3ccccc3)c3c2cnc2ccc(F)cc23)cc1 | 13%
C=CCOn1c(=O)c(-c2ccc(OC)cc2)[n+]([O-])c2ccccc21 | -5%
O=C(COC(=O)c1ccco1)Nc1ccc2[nH]c(=O)[nH]c2c1 | -7%
Cc1ccc(-c2nnn(CC(=O)N(c3cccc(F)c3)C(C(=O)NC3CCCC3)c3ccncc3)n2)o1 (stereo unspecified) | -9%
O=C(C1COc2ccccc2O1)N(Cc1cccnc1)c1nc2c(F)cccc2s1 (stereo unspecified) | 8%
CCN(Cc1ccncc1)C(=O)c1cc(COc2ccc(F)cc2Cl)on1 | 1%
Cc1ccc([N+](=O)[O-])c(OCCn2cnc3ccccc32)c1 | -7%
COc1ccc(NC(=O)CN2CCN(c3ccccc3Cl)CC2)cc1 | -1%
Cc1ccc2c(c1)N(C(=O)N1CCC(C(=O)NCCc3ccc(Cl)cc3)CC1)CC(C)O2 (stereo unspecified) | 19%

Looked up by structure from the list above:
SMILES | VDR inh
CNC(=O)c1ccc(NC(=O)c2ccc3c(=O)n4c(nc3c2)CCC4)cc1 | -5%
Cc1cc(C)c(-c2csc(NC(=O)c3n[nH]c(=O)c4ccccc34)n2)c(C)c1 | -4%
CCOC(=O)c1c(NC(=O)c2ccccc2)sc2c1CCc1ccccc1-2 | 71µM*
COc1cccc(NC(=O)CSc2nc3c([nH]c4ccccc43)c(=O)n2-c2cc(C)cc(C)c2)c1 | 26%
CCn1c(SCC(=O)Nc2ccc(OC)cc2)nc2c(c1=O)SCC2 | -16%
COc1ccc(C(CCN2CCOCC2)c2c(OC)cc(OC)c3c(-c4ccccc4)cc(=O)oc23)cc1 (stereo unspecified) | 9%&-7%

The main list resumes; the 2 compounds before the break are reprinted first.
SMILES | VDR inh
COc1ccc(NC(=O)CN2CCN(c3ccccc3Cl)CC2)cc1 | -1%
Cc1ccc2c(c1)N(C(=O)N1CCC(C(=O)NCCc3ccc(Cl)cc3)CC1)CC(C)O2 (stereo unspecified) | 19%
COc1ccccc1C(=O)N(CCN(C)C)c1nc2cc(C)cc(C)c2s1 | ?
COc1ccc(-c2cc3nc(C)cc(NCCO)n3n2)cc1 | 0%
NS(=O)(=O)c1ccc(Sc2nc3ccccc3s2)c([N+](=O)[O-])c1 | -13%
O=c1[nH]c2ccc(Cl)cc2c(=O)n1Cc1ccco1 | -3%
COc1ccc(CN2CCNC(=O)C2CC(=O)N(C)Cc2ccon2)c(F)c1 (stereo unspecified) | 1%
CCOc1cc(S(=O)(=O)N2CCN(CC)CC2)ccc1Cl | -7%
CCc1ccc(NC(=O)C2CCN(S(=O)(=O)c3c(C)[nH]c(=O)[nH]c3=O)CC2)cc1 | 5%
O=C1NC(=O)/C(=C\c2cn(CC(=O)N3CCOCC3)c3ccccc23)S1 | -3%
O=C(COc1ccc(F)c(Cl)c1)Nc1ccc(N2CCOCC2)cc1 | 4%
COc1ccc2nc(SCCOC(=O)Nc3ccc(Cl)cc3)nc(C)c2c1 | 6%
COC(=O)[C@@H](NC(=O)O[C@@H]1C(=O)c2cc(OC)ccc2O[C@H]1c1ccc(OC)c(Br)c1)C(C)C | 7%
CCCCC(=O)OCc1c(-c2cccc(OC)c2)ncc2ccccc12 | -4%
Cn1ccnc1C(=O)c1cc(SCC(=O)NC2CC2)nc2ccccc12 | 27%
CNC(=O)Nc1cc(NC(=O)NC)cc(C(F)(F)F)c1 | 3%
COC(=O)c1ccc(/C=N/N2CCN(Cc3ccccc3)CC2)cc1 | 16%
O=C(N/N=C/c1cc2c(cc1Cl)OCO2)c1ccccn1 | 5%
CCOC(=O)C1CCN(C(=O)CCNC(=O)c2cc(OC)c(OC)c(OC)c2)CC1 | 7%
O=[N+]([O-])c1ccc(Nc2ccccc2)c2nonc12 | 3%
CCOC(=O)C1=C(O)CCn2c1nc1ccccc12 | 14%
O=C(O)c1ccccc1-c1ccccc1C(=O)Nc1ccc(F)cc1 | 1%
CCOc1ccc(C2C(C#N)=C(N)Oc3n[nH]c(C)c32)cc1OC(=O)C1CC1 (stereo unspecified) | -5%
COC(=O)c1ccccc1NC(=O)CCS(=O)(=O)c1cc2c(cc1C)NC(=O)CO2 | -11%
NC(=O)Cn1c(=O)n(C2CCCCC2)c(=O)c2c3c(sc21)CCCCC3 | 1%
O=C(NCc1ccc(OC(F)(F)F)cc1)C1CC(c2c(Cl)cccc2Cl)=NO1 (stereo unspecified) | 25%
COc1ccc(NC(=O)[C@@H]2CC=C[C@@H]3CCN(C4CCCCC4)C(=O)[C@@H]32)cc1 | -13%
CC1CCC(NC(=O)CSc2nnnn2C)CC1 (stereo unspecified) | -19%
CC(C)(C)NC(=O)CSc1nnc(NC(=O)c2ccccc2Cl)s1 | -7%
CCS(=O)(=O)N1CCC(C(=O)Oc2ccccc2OC)CC1 | -12%
CCCn1nc(NC(=O)c2ccco2)c2cc3cc(C)ccc3nc21 | -8%
COc1cccc(Cn2c(=O)n(-c3ccc(Br)cc3F)c(=O)c3sc4ccccc4c32)c1 | ?
CC(=O)C1=C(C)Nc2ncnn2C1c1ccc(F)cc1 (stereo unspecified) | -2%
Cc1cc(S(=O)(=O)NC(C)c2nnc3ccccn23)ccc1Br (stereo unspecified) | 6%
Cc1c(-n2c(SCC(=O)O)nnc2-c2ccccc2Cl)c(=O)n(-c2ccccc2)n1C | -2%
Cc1cc(OCc2ccc(C(=O)Nc3ccc(C(=O)O)cc3)o2)ccc1Cl | 33%[activator]
COc1ccc(CNC(=O)CCc2c(C)c3cc4c(C)c(C)oc4cc3oc2=O)cc1OC | -1%
CC(NCCOc1ccccc1F)C(=O)Nc1ccc(S(N)(=O)=O)cc1 (stereo unspecified) | -1%
COc1ccccc1CNS(=O)(=O)c1cc(C(=O)Nc2cccc(C(F)(F)F)c2)ccc1F | 12%
O=C(/C=C/Nc1cccc(C(F)(F)F)c1)c1ccco1 | -14%
COc1cc(C(=O)c2nccc3cc(OC)c(OC)cc23)c([N+](=O)[O-])cc1OC | -22%
CN(C)/C=C/C(=O)c1ccc(F)cc1F | -23%
CCN(CC)S(=O)(=O)c1ccc2c(c1)N(CC(=O)N1CCN(c3ccccc3F)CC1)C(=O)CO2 | -5%
Cc1ccc(NC(=O)CCN2C(=O)c3ccccc3S2(=O)=O)cc1C | -19%
O=C(Nn1cnc2ccccc2c1=O)c1cccc(Cl)c1 | 2%
CCOCCCNC(=O)c1ccc(Cn2c(=S)[nH]c3c([nH]c4ccc(OC)cc43)c2=O)cc1 | -10%
Cn1cnnc1SCc1ccc(C(=O)N/N=C(/CCC(=O)O)c2ccc(C(C)(C)C)cc2)cc1 | -4%
CCNC(=O)NC(=O)CSc1nc2ccccc2n1CCOC | -6%
CC(=O)Nc1nc2c(F)cccc2s1 | 19%
Cc1cc(NC(=O)c2ccccc2F)n(-c2nc3ccccc3[nH]2)n1 | -12%
COc1ccccc1NC(=S)N(CCc1nc2cc(C)c(C)cc2[nH]1)Cc1cccnc1 | -1%
Cc1c(C)[n+](=O)c2c(n1[O-])CCC2 | 5%
Cc1ccc(C(=O)N/C(=C\c2cccs2)C(=O)NCCCn2ccnc2)cc1C | 5%
CC(=O)C1=C(C)NC(SCC(=O)c2ccc(Cl)c(Cl)c2)=C(C#N)C1c1ccco1 (stereo unspecified) | 13%
Cc1cc(C(=O)NNC(=O)COc2c(C)cc(Br)cc2C)n[nH]1 | 2%
CCC(=O)N1CCc2cc(Br)cc(S(=O)(=O)N3CCCC(C(=O)NCc4ccc(OC)cc4)C3)c21 (stereo unspecified) | -14%
Cn1c(=O)c2[nH]c(=O)cnc2n(C)c1=S | -23%
CC(=O)N1CCN(c2ccc(NC(=O)COc3ccc(Cl)cc3Cl)cc2)CC1 | -2%
CCC(C)c1ccccc1N1CC(C(=O)N(C)CC(=O)Nc2cccc(F)c2)CC1=O (stereo unspecified) | -18%
CCOc1cc(C(=O)N/N=C\c2cn(CC)nc2C)cc(OCC)c1OCC | 7%
CCc1noc(C)c1C(=O)N1CCN(S(=O)(=O)c2ccc(Cl)cc2)CC1 | -2%
COc1ccc(-c2csc(NC(=O)c3cc(-c4cccs4)nc4ccccc34)n2)c(OC)c1 | -16%
O=C(CN1C(=O)c2ccccc2S1(=O)=O)c1ccc(O)c(O)c1 | -16%
